TRPML1 inh: qHTS for Inhibitors of the Human Mucolipin Transient Receptor Potential 1 (TRPML1); activity change, negative = inhibition, % (no concentration beside the values); Mucolipin-1 (Homo sapiens), Q9GZU1; 0.02% of 390,000 active; TRPML1-inducible cells, Ca2+ dye fluorescence, FDSS; active compounds read low; inhibition of EC80 agonist-evoked calcium signal; in the data active means activity change below about -50%; inconclusive means about -30% to -50%; inactive means above about -30%;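 note: stimulus is agonist 54-4 at its EC80 concentration; % is set by controls: 0 for no effect and ±100 for the full control effect; compound concentration not given in the record; the text of the record puts the active cut at -80%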
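TRPML1-DL cells, Tet-induced overnight (~16 h, 37 °C) at 1,500 cells/well, were loaded with Ca8 no-wash dye plus quencher for 45-90 min at room temperature. Compounds were pinned during FDSS kinetic reading; agonist 54-4 at EC80 (4 uM final) then added.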
TRPML1 ag: qHTS for Agonists of the Human Mucolipin Transient Receptor Potential 1 (TRPML1); Mucolipin-1 (Homo sapiens), Q9GZU1; TRPML1-expressing cells, Ca2+ dye fluorescence, FDSS; host cell line not named in the record; reference of the full effect not given here; activation, % (concentration not given with the values); 0.12% of 410,000 active; AID 624414, 2012; in the data active = activation above about 50%; inconclusive = about 30% to 50%; inactive = below about 30%; note: 0% is about no effect; the text of the record puts the active cut at 80%
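Calcium fluorescence on an FDSS kinetic reader gave the read-out. Tet-induced TRPML1-DL cells were plated overnight, dye-loaded (Ca8 with quencher, 45-90 min, room temperature, dark), then read 110 s after compound addition, and again 110 s after 4uM final 54-4 (EC80).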
CtBP-E1A inh: qHTS Assay for Inhibitors of the CtBP/E1A Interaction. 0.49% of 340,000 active. AID 651724, 2012. AlphaScreen GST-E1A/His-CtBP binding, 1536-well; active compounds read low; control for the full effect not named in the record. activity change, % (no concentration beside the values). CtBP / adenovirus E1A interaction (AlphaScreen); in the data active means activity change below about -65%; inconclusive means about -30% to -65%; inactive means above about -30%; note: % is set by controls: 0 for no effect and ±100 for the full control effect
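Protein mix (5X: 125 nM each GST-E1A, His-CtBP) was incubated with pinned compound 2 h at 37 deg C in dark, in 50 mM Tris pH 8.0 buffer with 300 mM NaCl. Glutathione donor and nickel acceptor beads followed; AlphaScreen signal read after 1 h.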
D2 PAM: Beta-Arrestin HTS for Positive Allosteric Modulators of the Human D2 Dopamine Receptor: Potentiators | D(2) dopamine receptor (Homo sapiens), P14416 | DiscoveRx D2 beta-arrestin cells, luminescence, 90 min; 100% = 57 uM dopamine signal | potentiation, % (test concentration not listed) | 0.23% of 360,000 active; active = potentiation of 50% or more; inconclusive = 30% to 50%; inactive = 30% or less;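 note: compound concentration not given in the record; tested on top of an EC20 dose of dopamine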
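PathHunter beta-arrestin assay in DiscoveRx D2 cells. Compounds were added with an EC20 of dopamine (50 nM final) for 90 min at 37 deg C. Luminescence was read 1 h after detection reagent, with 57 uM dopamine as the EC100 control.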
Six1-Eya2 blk: qHTS Assay for Inhibitors of the Six1/Eya2 Interaction; Homeobox protein SIX1 (Homo sapiens) + Protein phosphatase EYA2 (Homo sapiens), …; AlphaScreen GST-Six1/His-Eya2 binding, biochemical; active compounds read low; control for the full effect not named in the record; activity change, % (no concentration beside the values); 0.56% of 360,000 active; AID 651725, 2012; in the data active = activity change below about -65%; inconclusive = about -30% to -65%; inactive = above about -30%; note: % is set by controls: 0 for no effect and ±100 for the full control effect
Target sequence (O00167 whole entry, looked up): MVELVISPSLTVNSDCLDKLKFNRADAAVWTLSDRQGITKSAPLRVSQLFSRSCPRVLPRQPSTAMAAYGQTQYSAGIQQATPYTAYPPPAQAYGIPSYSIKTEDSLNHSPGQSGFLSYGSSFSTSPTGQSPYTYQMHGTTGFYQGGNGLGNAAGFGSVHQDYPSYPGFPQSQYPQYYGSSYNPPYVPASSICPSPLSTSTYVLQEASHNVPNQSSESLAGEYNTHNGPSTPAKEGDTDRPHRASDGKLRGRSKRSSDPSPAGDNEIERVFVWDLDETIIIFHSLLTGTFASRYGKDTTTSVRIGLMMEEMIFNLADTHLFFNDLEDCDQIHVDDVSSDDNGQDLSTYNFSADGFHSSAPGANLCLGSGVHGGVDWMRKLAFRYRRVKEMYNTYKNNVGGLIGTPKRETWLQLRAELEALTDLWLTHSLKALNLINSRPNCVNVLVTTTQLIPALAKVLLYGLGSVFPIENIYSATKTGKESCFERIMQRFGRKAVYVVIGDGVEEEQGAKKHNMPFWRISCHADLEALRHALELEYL
Target sequence (Q15475 whole entry, looked up): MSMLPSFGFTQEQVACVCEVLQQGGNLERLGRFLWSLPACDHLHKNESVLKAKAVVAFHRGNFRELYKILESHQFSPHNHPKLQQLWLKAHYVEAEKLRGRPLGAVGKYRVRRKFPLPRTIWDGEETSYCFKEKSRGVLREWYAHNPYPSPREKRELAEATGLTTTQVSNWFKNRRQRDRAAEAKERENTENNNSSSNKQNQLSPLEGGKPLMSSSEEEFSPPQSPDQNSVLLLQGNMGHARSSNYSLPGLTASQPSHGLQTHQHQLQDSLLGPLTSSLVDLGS
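AlphaScreen with GST-Six1 and His-Eya2 (5X mix: 250 nM and 500 nM), glutathione donor and nickel acceptor beads; buffer 50 mM Tris pH 8.0, 300 mM NaCl, 1 mM TCEP; 1 h at 37 C in the dark.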
TRPV1 PAM: HTS Assay for Compounds that Act as Potentiators of the Vanilloid Receptor 1. AID 540277, 2011. TRPV1-expressing cells, Fluo-8 calcium influx, capsaicin EC20 potentiation; host cell line not named in the record; control for the full effect not named in the record. potentiation, % at 8.33 µM. 0.02% of 320,000 active. Transient receptor potential cation channel subfamily V member 1 (Homo sapiens), Q8NER1; active means potentiation above 80%; inconclusive means 30% to 80%; inactive means below 30%; note: 0% is about no effect
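Cells expressing TRPV1 were dye-loaded with Fluo-8 and read kinetically: 10 s baseline, 3 min after compound (agonist portion), then 2 min after EC20 capsaicin (allosteric enhancer portion). Calcium-bound dye fluorescence at 480/520 nm.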
* marks the source's active call; other numbers are inactive results; ? = inconclusive; nt = no result given. This is a random part of the collection; overall some 0.95% were active at least once.

Under each structure – TRPML1 inh | TRPML1 ag | CtBP-E1A inh | D2 PAM | Six1-Eya2 blk | TRPV1 PAM
O=C(/C=C/c1ccccc1Cl)N(c1ccccn1)C1CCCCC1
    -18.0 | 1.3 | -10.8 | 5.3 | 0.3 | 15.5
CCOC(=O)c1cc2c(ccn2C)n1CC(=O)N1CCCC(C)C1 (stereo not given)
    10.3 | -0.2 | 0.6 | -6.5 | -0.6 | -28.6
CCOc1ccc(S(=O)(=O)Nc2nccs2)cc1
    -8.8 | 0.6 | -17.3 | -7.1 | -9.8 | -10.0
COc1ccc(Cn2c(=O)cc(N)n(-c3ccccc3C)c2=O)cc1
    21.6 | 0.6 | 1.2 | 0.5 | -1.9 | 24.4
N#C/C(=C\c1ccccc1[N+](=O)[O-])c1nc(C2CC2)cs1
    1.3 | 0.2 | ? | 25.7 | ? | -8.3
CCOCCn1c(CN2CCN(c3ccc(OC)cc3)CC2)nc2c1c(=O)n(C)c(=O)n2C
    -8.6 | -0.3 | 8.9 | -1.8 | -0.7 | nt
Cc1cc(S(=O)(=O)N2CCC(N3CCCCC3)CC2)ccc1-n1cnnn1
    -20.0 | -0.2 | -0.1 | -4.6 | 0.8 | -1.2
CCC(C)n1c(=N)c(C#N)cc2c(=O)n3ccccc3nc21 (stereo not given)
    0.8 | -0.9 | 5.7 | -7.0 | -1.5 | -8.3
CN1CCN(CCCNC(=O)CCN2C(=O)COc3ccccc32)CC1
    1.0 | -0.6 | 2.8 | -11.8 | 5.6 | 10.7
COc1ccccc1NS(=O)(=O)c1ccc(C)c(C(=O)Nc2cc(C)on2)c1
    -0.6 | 0.3 | 4.5 | 1.4 | 6.8 | nt
COCCN1CCn2c(nc3cc(NS(C)(=O)=O)ccc32)C1
    7.7 | -1.0 | 4.7 | -0.4 | 4.4 | 4.5
CCCc1c2ccccc2nc2ccccc12
    -5.2 | -0.5 | 11.1 | -24.2 | -0.3 | -1.9
CNC[C@H]1OCc2cnnn2CCCC(=O)N([C@H](C)CO)C[C@@H]1C
    -7.2 | -0.3 | -23.7 | -3.0 | 4.7 | nt
CCc1cc2c(NCCN3CCCCC3)ncnc2s1
    -0.5 | -0.3 | 0.6 | -27.6 | -0.4 | 28.2
COc1ccccc1C1=NOC(C)(c2sc(-c3ccc(Cl)cc3)nc2C)C1 (stereo not given)
    15.3 | 3.0 | 8.9 | -3.3 | 4.3 | 20.8
O=C1CSC(c2ccccc2[N+](=O)[O-])N1c1cccc(F)c1 (stereo not given)
    -2.1 | -0.3 | 1.2 | -20.7 | -2.0 | 10.1
CCCCCC(=O)N/N=C/c1ccco1
    2.9 | 2.9 | 1.1 | -5.5 | 1.0 | -4.0
COC(=O)c1ccc(N2C(c3cc(OC)cc(OC)c3)=Cc3ccc(-c4cnc(OC)nc4)cc3C2CC(=O)C2CC2)cc1 (stereo not given)
    nt | 0.0 | 13.5 | nt | 24.7 | nt
Cc1nc(NN)c2c3c(sc2n1)COC(C)(C)C3
    1.4 | -1.2 | -0.5 | -3.0 | -14.5 | -11.4
Cc1cc(C)cc(NC(=O)C2CCN(c3nc(C)cc(C)n3)CC2)c1
    37.2 | 1.4 | -3.6 | -11.8 | 5.2 | 7.9
COc1ccc(/C=C/C(=O)c2oc3ccc(F)cc3c2C)cc1
    -9.0 | -0.2 | -0.1 | 0.2 | 8.6 | 6.7
CCOC(=O)c1sc(NC(=O)c2c(CC)noc2C)nc1C
    -6.1 | 0.4 | nt | 0.0 | -0.4 | -8.4
COCCNC(=O)C(OC(=O)c1ccco1)c1ccccc1Cl (stereo not given)
    -21.8 | 0.2 | 7.4 | 2.5 | 7.0 | -16.8
CC(C)(C)NC(=O)Cn1c(-c2nonc2N)nc2ccccc21
    2.0 | -0.5 | 3.6 | 2.0 | 4.3 | 4.0
Cc1cccc(NC(=O)NNC(=O)c2sccc2-n2cccc2)c1
    49.7 | 1.4 | -3.9 | -1.2 | -8.3 | 20.0
Cc1csc(NC(=O)CSc2[nH]c(=O)ncc2C)n1
    1.4 | 1.5 | 0.1 | 8.4 | -4.9 | 14.3
O=c1c(Cl)c(NCc2ccco2)cnn1C12CC3CC(CC(C3)C1)C2
    -11.0 | -0.2 | -0.2 | -6.6 | -5.2 | 13.5
COc1ccc(N(C(=O)c2snc(C(N)=O)c2N)C(C(=O)NC2CCCC2)c2ccc3ncccc3c2)cc1 (stereo not given)
    3.5 | 4.3 | 7.3 | 0.8 | 11.9 | 13.7
Cc1ccc(CN(c2ccc(C(=O)N3CCCC3)cc2)S(C)(=O)=O)cc1
    4.9 | 0.1 | 3.3 | 11.8 | 3.8 | 1.8
CC(C)c1ccc(N2CC(C(=O)Nc3nccs3)CC2=O)cc1 (stereo not given)
    15.2 | 0.9 | -5.2 | -4.2 | -0.8 | -6.6

Compound profiles, from the list above. Order of screens: TRPML1 inh, TRPML1 ag, CtBP-E1A inh, D2 PAM, Six1-Eya2 blk, TRPV1 PAM
Results for COc1ccccc1NS(=O)(=O)c1ccc(C)c(C(=O)Nc2cc(C)on2)c1 : -0.6, 0.3, 4.5, 1.4, 6.8, nt
Results for CCCCCC(=O)N/N=C/c1ccco1 : 2.9, 2.9, 1.1, -5.5, 1.0, -4.0
Results for CCCc1c2ccccc2nc2ccccc12 : -5.2, -0.5, 11.1, -24.2, -0.3, -1.9
Results for O=c1c(Cl)c(NCc2ccco2)cnn1C12CC3CC(CC(C3)C1)C2 : -11.0, -0.2, -0.2, -6.6, -5.2, 13.5
Results for Cc1nc(NN)c2c3c(sc2n1)COC(C)(C)C3 : 1.4, -1.2, -0.5, -3.0, -14.5, -11.4

Further entries
Under each structure – TRPML1 inh | TRPML1 ag | CtBP-E1A inh | D2 PAM | Six1-Eya2 blk | TRPV1 PAM
COc1cc(-c2nnn(CC(=O)N3CCOCC3)n2)cc(OC)c1OC
    18.1 | -0.2 | 2.2 | 2.1 | -0.6 | 2.5
CC(C)C[C@H]1CN([C@@H](CC(C)C)CN2CCCC2CN2C(=S)NC[C@@H]2Cc2ccc(O)cc2)C(=S)N1CC1CCCCC1 (stereo not given in full)
    4.6 | -0.4 | -0.8 | -6.3 | 1.7 | nt
CCOCCc1nnc(NC(=O)c2ccc(OC)c(OC)c2)s1
    18.2 | 0.1 | -1.0 | -12.3 | 4.0 | 16.6
COc1ccc(Cc2nc3ccccc3n2CC(=O)N/N=C/c2ccc(O)cc2)cc1OC
    28.1 | 1.4 | -6.7 | -4.2 | -6.6 | -5.2
COc1ccc(CN2C(=O)CCC2(C)c2nnnn2-c2c(C)cccc2C)cc1 (stereo not given)
    nt | -0.6 | 4.0 | nt | -1.3 | nt
O=C1CC(c2ccc(F)cc2)Sc2ccccc2N1 (stereo not given)
    -3.0 | 1.6 | -3.9 | -3.6 | 1.1 | -4.7
CC1CCCCC1NC(=O)CN1C(=O)NC(C)(c2cccc(Br)c2)C1=O (stereo not given)
    4.7 | -0.1 | nt | -6.9 | 9.4 | 21.8
COCCn1c(SCc2nc3sc(C(=O)OC)c(C)c3c(=O)[nH]2)nc2ccccc21
    5.6 | 0.2 | 0.6 | -18.6 | 3.3 | 7.2
Cc1ccc(S(=O)(=O)Nc2cncnc2NS(=O)(=O)c2ccc(C)cc2)cc1
    -4.5 | 1.0 | -3.9 | -4.8 | -9.1 | nt
O=C(/C=C/c1ccccc1Br)c1ccc2c(c1)OCO2
    4.9 | -0.9 | -5.0 | -5.9 | -23.1 | -1.3
COc1ccccc1OCC(=O)Nc1oc(-c2ccccc2)c(-c2ccccc2)c1C#N
    -13.7 | 0.9 | -3.6 | -6.6 | -12.2 | 18.3
COc1ccc(N(CC(=O)NCc2ccco2)S(C)(=O)=O)cc1Cl
    -7.4 | -0.8 | -0.1 | 5.1 | -5.3 | 2.5
O=[N+]([O-])c1ccc(-c2nnc3n2CCCCC3)cc1
    0.4 | -0.5 | 9.8 | -0.3 | -0.9 | -10.9
O=C(COC(=O)c1ccccc1F)Nc1ccc(S(=O)(=O)N2CCOCC2)cc1
    9.4 | 1.1 | -2.8 | -2.4 | -18.8 | nt
Cc1ccc(C)c(NC(=S)NCCSc2ccc(Cl)cc2)c1
    -17.1 | 3.3 | -2.1 | -9.2 | -17.7 | -6.6
O=C(c1ccccc1)N1N=C(c2ccccc2O)CC1c1ccc(Br)cc1 (stereo not given)
    26.1 | -0.6 | nt | 3.7 | -5.3 | -3.1
Cc1ccc(N2CCN(CC(O)COc3cccc(C)c3)CC2)cc1 (stereo not given)
    1.8 | 0.5 | nt | -49.5 | -20.9 | 7.2
O=C1C2C3C=CC(C3)C2C(=O)N1c1ccc(-c2nc3ccccc3c(=O)o2)cc1 (stereo not given)
    -9.8 | 0.6 | 4.2 | 2.0 | 3.2 | 3.5
COc1ccc2c(c1)C(SCC(=O)NCCc1ccccc1)CC(C)(C)O2 (stereo not given)
    -5.1 | 3.1 | -5.9 | -2.1 | -8.4 | -6.8
Cn1cc(S(=O)(=O)NC[C@H]2O[C@@H](n3ccc(=O)[nH]c3=O)[C@H](O)[C@@H]2O)cn1
    17.7 | 2.2 | 5.7 | nt | 3.6 | nt
Cc1cc(=O)c2ccccc2s1
    0.4 | 0.0 | 7.7 | 1.2 | -0.1 | 3.8
CCCCN1C(=O)C(=O)NC[C@H]1Cc1cccc2ccccc12
    nt | -0.3 | -20.6 | nt | 12.5 | nt
CC(C)CCNC(=O)NC(=O)COC(=O)/C=C/c1cc(Br)ccc1F
    10.8 | 3.6 | -4.9 | -10.4 | 4.6 | -5.0
CS(=O)(=O)c1ccc(C(=O)OCC(=O)NC(=O)C2COc3ccccc3O2)cc1[N+](=O)[O-] (stereo not given)
    12.2 | 0.3 | 2.0 | -8.0 | 3.0 | nt
O=C(c1ccc(F)cc1)C1CCN(Cc2cn[nH]c2-c2ccccc2)CC1
    11.4 | -0.1 | -3.3 | -17.7 | -2.6 | -13.7
O=c1c2c([nH]c3ccccc13)CCCCCC2
    11.8 | -0.6 | 6.6 | -3.1 | -1.1 | 12.8
COc1ccc(NC(=S)N2CCC3CC2c2cc(-c4ccc5c(c4)OCO5)ccc23)c(OC)c1 (stereo not given)
    nt | 0.2 | ? | -7.0 | -25.3 | nt
O=C(c1ccccc1)N1CCCC(C(=O)N2CCN(c3ccccc3)CC2)C1 (stereo not given)
    0.3 | 0.4 | 1.3 | -5.8 | -3.2 | 2.6
CC(C)CC1Nc2ncnc(N3CCN(c4ccccc4)CC3)c2N(Cc2ccc(Cl)cc2)C1=O (stereo not given)
    58.4 | -0.4 | -14.2 | -12.4 | -19.8 | 5.3
Cn1cnc(S(=O)(=O)N2CCCCC2c2cc(C(=O)Nc3cccc(C#N)c3)no2)c1 (stereo not given)
    nt | -0.6 | -7.6 | -6.5 | -13.5 | nt

Bioassay records as filed in PubChem BioAssay.
